High-throughput results from PubChem.
HNF4A DNA FP: change in binding of human HNF4A to DNA, primary screen, biochemical, fluorescence polarization, FITC-DNA | 360,000 tested, 0.3% active | 1 h | Hepatocyte nuclear factor 4-alpha (Homo sapiens), P41235 | activity change, % at 10 µM; in the data active means activity change above about 30%, passing the limit was not always enough;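 further: controls were the assay level and a saturating level of protein; the project sought stronger binding though the title names inhibitors; some compounds called inactive have numbers as strong as hits; positive values seem to mean higher polarization but the record does not say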
Target sequence (P41235 whole entry, looked up): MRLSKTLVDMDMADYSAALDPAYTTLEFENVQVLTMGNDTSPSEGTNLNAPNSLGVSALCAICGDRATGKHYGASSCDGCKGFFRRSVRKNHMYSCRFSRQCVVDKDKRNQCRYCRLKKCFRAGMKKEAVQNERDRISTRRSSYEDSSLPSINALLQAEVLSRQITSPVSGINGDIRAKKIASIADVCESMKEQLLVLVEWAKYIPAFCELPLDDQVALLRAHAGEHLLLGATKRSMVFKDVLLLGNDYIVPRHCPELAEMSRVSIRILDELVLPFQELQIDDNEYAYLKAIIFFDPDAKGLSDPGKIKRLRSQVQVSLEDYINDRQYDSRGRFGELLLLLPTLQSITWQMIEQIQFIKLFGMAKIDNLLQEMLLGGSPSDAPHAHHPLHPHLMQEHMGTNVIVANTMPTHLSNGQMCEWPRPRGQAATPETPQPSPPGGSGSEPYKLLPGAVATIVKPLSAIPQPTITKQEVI
RanGTP-Imp inh: inhibitors of RanGTP-importin-beta interaction, primary screen, biochemical, FRET, CFP-Ran, YFP-importin-beta, homogeneous; Ran GTPase (GTP-bound) - importin-beta complex; cell-free CFP-Ran/YFP-importin-beta FRET ratio; inhibition, % (test concentration not listed); 300,000 tested, 1.1% active; AID 2216, 2009;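 active means most replicates above 15%; inconclusive means exactly half above 15%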;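 further: 0% = DMSO wells and 100% = Ran loaded with GDP instead of GTP; wells of about 40 µL received 100 nL stock; the first replicate is given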
FGF22 binding: binders of human FGF22 protein, primary screen, FGF22 synaptogenesis inhibitor project, biophysical, thermal shift, single point; AID 651658, 2012; Fibroblast growth factor 22 (Homo sapiens), Q9HCT0; recombinant FGF22 thermal shift, SYPRO orange fluorescence; percent of sucrose octasulfate shift, DMSO zero; calls only at 9.99 µM; 340,000 tested, 1.5% active;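 active means melting point raised past a set limit in the mean and every replicate; inconclusive means no clear call; three in four hits are not shown here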
Ecoli growth: E. coli growth inhibition, primary screen, OD600; Escherichia coli growth, 23 h; active compounds read low; OD600 absorbance (concentration not given with the values); 330,000 tested, 0.21% active;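 active means OD600 absorbance below the run mean of sample wells minus 3.6 SD, in any replicate, cut at about 0.56 in these data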;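 further: stock transfer was 300 nL into about 60 µL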
UCH37 DUB inh: inhibitors of human UCH37 deubiquitinase, primary screen, biochemical, Ub-AMC cleavage, fluorescence | Ubiquitin carboxyl-terminal hydrolase isozyme L5 (Homo sapiens), Q9Y5K5 | purified proteasome/UCH37 | inhibition, % (no concentration beside the values) | 330,000 tested, 0.33% active | AID 588478, 2011;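 active means mean of two replicates above 20%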;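 further: 0% = compound-free wells with enzyme and 100% = wells lacking proteasome; stock transfer was 100 nL into about 20 µL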
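Test system – human UCH37 enzyme supplied as purified proteasome complex · Incubation – 30 min preincubation with enzyme, 25 min cleavage at room temperature · Detection – AMC fluorescence from Ub-AMC cleavage, excitation 355 nm, emission 460 nm · Benchmarks – no-proteasome wells (full inhibition) and compound-free wells (no inhibition)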
AF4-AF9 inh: inhibitors of AF4 peptide binding to AF9, primary screen, biochemical, AlphaScreen, biotin-AF4 peptide, FLAG-AF9, single point; inhibition, % at 10 µM; Protein AF-9 (Homo sapiens), P42568; AID 651704, 2012; 350,000 tested, 0.47% active;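 active means every replicate reaching a set inhibition limit, whatever the replicate mean, cut at about 25% in these data; inconclusive means mean inhibition reaches that limit but some replicates miss it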;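 further: 0% = plate neutral control median and 100% = total signal loss; the record names both 10 and 1 µM as test concentration; the first replicate is given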
Target sequence (P42568 whole entry, looked up): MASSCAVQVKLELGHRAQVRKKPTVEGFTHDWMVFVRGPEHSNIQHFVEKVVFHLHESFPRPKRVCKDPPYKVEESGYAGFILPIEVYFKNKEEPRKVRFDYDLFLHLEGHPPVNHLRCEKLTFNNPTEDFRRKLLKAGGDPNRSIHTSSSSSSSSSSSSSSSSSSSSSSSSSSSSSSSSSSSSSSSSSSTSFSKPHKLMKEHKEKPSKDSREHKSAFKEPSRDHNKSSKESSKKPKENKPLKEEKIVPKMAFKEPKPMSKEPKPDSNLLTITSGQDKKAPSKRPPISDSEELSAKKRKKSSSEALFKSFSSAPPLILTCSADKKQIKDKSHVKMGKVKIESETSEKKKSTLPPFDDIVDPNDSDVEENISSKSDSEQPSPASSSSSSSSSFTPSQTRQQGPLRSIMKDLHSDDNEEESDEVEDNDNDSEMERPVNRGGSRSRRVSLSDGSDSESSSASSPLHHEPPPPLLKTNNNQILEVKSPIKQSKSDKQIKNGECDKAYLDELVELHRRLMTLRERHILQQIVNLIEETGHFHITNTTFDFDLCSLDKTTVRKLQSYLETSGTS
Vif TR-FRET: inhibitors of Vif binding to APOBEC3G peptide, primary screen, biochemical, TR-FRET, GST-Vif 1-94, biotin-A3G peptide, dose response retest (AID 1117319) | TR-FRET GST-Vif / biotin-A3G peptide binding; higher % means a stronger effect; test concentration not given here; strong numbers were not always called active | one-dose inhibition, %; IC50 in µM for titrated hits | 260,000 tested, 0.57% active;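 active means above the screen mean plus three standard deviations and confirmed in dose response; inconclusive means results disagree or hit not tested in dose response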;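 further: Vif residues 1-94 fused to GST binding biotinylated APOBEC3G peptide 110-148; 0% = full assay without inhibitor and 100% = GST in place of GST-Vif; retest series ran down from 100 µM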
* hit, by the source's call; i = inactive; ? = inconclusive; . = no result given; & = joins results of further samples.

SMILES	HNF4A DNA FP	RanGTP-Imp inh	FGF22 binding	Ecoli growth	UCH37 DUB inh	AF4-AF9 inh	Vif TR-FRET
O=C(O)/C=C/C(=O)Nc1ccc(-n2nccc2C(F)(F)F)cc1	1.4	4.9	i	0.68	-0.9	-4.4	-7%
COc1ccc(CN(C(=O)c2cc3ccccc3oc2=O)C2CCS(=O)(=O)C2)cc1OC (stereo unspecified)	-0.7	2.3	i	0.7	2.6	0.3	2%
Cc1ccc2c(C)cc[n+](CCCS(=O)(=O)[O-])c2c1	-3.4	-1.1	.	0.66	-22	.	3%
COc1ccccc1N1CCN(C(=O)c2oc3ccc(Br)cc3c2C)CC1	-3.9	1.8	i	0.68	3.0	-3.5	0%
CCCOc1ccc(C(=O)N2CCN(Cc3ccc4c(c3)OCO4)CC2)cc1	-1.8	-3.9	i	0.61	5.0	1.4	1%
COc1ccccc1C(O)(c1ccccc1)c1ccccc1OC	0.7	.	i	0.71	0.1	-1.3	-6%
Cc1ccccc1NC(=O)CCNS(=O)(=O)c1ccc2c(c1)CCC(=O)N2	2.8	-0.5	i	0.71	-0.4	-2.8	.
CCOc1ccc(C2CC(c3ccccc3)Nc3nc(N)nn32)cc1 (stereo unspecified)	-2.6	4.8	.	0.71	-0.3	.	2%
COc1ccc(C(C)=O)cc1CN1C(=O)NC2(CCCCC2C)C1=O (stereo unspecified)	2.4	2.8	.	0.75	2.3	.	2%
COC(=O)c1ccc(NC(=O)N2CCCC(C(=O)c3ccccc3OC)C2)cc1 (stereo unspecified)	-1.7	-4.8	i	0.7	4.0	-3.4	.
CCC(=O)N1CCN(c2ccc(NC(=O)c3ccco3)cc2Cl)CC1	2.3	-5.0	i	0.72	0.6	1.9	-3%
O=S(=O)(NC1CCSc2ccccc21)c1ccc(Cl)nc1 (stereo unspecified)	2.6	0.7	i	0.69	1.9	-3.1	.
C[C@H](CO)N1C[C@H](C)[C@@H](CN(C)C(=O)NC2CCCCC2)Oc2ccc(NS(=O)(=O)c3ccccc3)cc2C1=O	3.0	.	i	0.75	4.4	-2.6&0.4	.
Cc1nnc(NC2CCCCC2)[nH]c1=O	-1.4	1.0	.	0.72	-0.1	.	3%
CCOc1ccc(Nc2nc3ccccc3n2C)cc1	5.1	-11	i	0.65	3.6	2.6	.
COc1ccc(C(=O)N/N=C/c2c(C)[nH]c(=O)[nH]c2=O)cc1	3.0	-1.2	i	.	.	1.7	3%
COc1ccc(/C=C2\SC(=S)N(CCC(=O)NCCc3ccc(O)cc3)C2=O)cc1	-1.1	-0.1	i	0.74	4.4	-1.3	.
C=CCN1c2ccc(Br)cc2C(=O)CS1(=O)=O	-3.5	.	i	0.69	-1.0	-0.2	.
COc1ccc(N2CCN(C(=O)c3ccc(Oc4ccc(C(F)(F)F)cn4)cc3)CC2)cc1	-2.2	-3.2	.	0.66	3.8	.	-6%
CCOC(=O)c1nn(-c2ccc(C)c(C)c2)c(=O)c(C#N)c1C	-9.0	-2.1	i	0.67	5.7	-1.2	.
CN(Cc1ccccc1)CC(O)COc1ccc(CNCCc2ccncc2)cc1 (stereo unspecified)	-3.0	2.1	i	0.73	0.6	4.6	15%
Cc1nnc(NC(=O)CSc2nnc(CNC(=O)c3ccc(S(=O)(=O)N(C)C)cc3)o2)s1	3.0	5.0	i	0.66	-2.3	-3.0	.
CCOc1ccccc1/C=C(\C#N)C1=CCCC1	-5.0	-1.9	i	0.7	4.0	-3.0	.
O=c1cc(-c2cccc([N+](=O)[O-])c2)[nH][nH]1	-4.1	1.5	.	0.69	6.8	.	-3%
COc1ccc(-c2c(C(=O)c3ccccc3)[nH]c(N)c2C(=O)NCc2ccccc2)cc1OC	-8.8	.	i	.	.	-0.8	.
Cc1cccc(-n2c(N)cc(=O)nc2SCC(=O)Nc2ccccc2)c1	0.8	0.9	.	0.71	-3.5	.	2%
Cc1ccc(NC(=O)NCc2cccnc2)cc1	-1.7	2.2	i	0.66	2.3	-0.2	7%
CN(c1ccc(OCC(=O)OCC(=O)Nc2ccccc2)cc1)S(=O)(=O)c1cccs1	-2.1	3.0	i	0.68	2.1	4.1	0%
COC(=O)C1CCN(C(=O)c2cc(S(=O)(=O)N3CCCCC3)ccc2Cl)CC1	2.7	.	i	0.64	-0.6	-5.0	1%
CN(C)c1ccc(C(=S)NC2CCCCC2)cc1	1.4	1.6	i	0.69	4.9	-0.7	5%
CN(C)S(=O)(=O)c1ccc(N2CCCC2)c(C(=O)NNC(=O)COc2ccc(Cl)cc2)c1	0.6	-1.2	i	0.71	-0.5	-2.6	.
CCOC(=O)C1CCCN(C(=O)c2cc(Nc3ccc(OC)cc3OC)nc3ccccc23)C1 (stereo unspecified)	0.0	-1.5	.	0.75	0.7	.	-8%
CC(C)(C)c1ccc(-c2n[nH]c(=S)n2CCCN2CCOCC2)cc1	0.9	-1.6	i	0.69	0.4	-4.2	8%
Cc1ccc(C(=O)OCC(=O)N(CCc2ccccc2)Cc2ccccc2)cc1S(=O)(=O)N1CCOCC1	-2.7	?	i	0.71	5.6	-15	5%
COC(=O)CCC(=O)OC1(C)C(=O)C2=CN(C(CO)CO)C(c3ccc(OC)cc3)=CC2=C(Br)C1=O (stereo unspecified)	.	8.4	i	.	.	3.8	?
CCCCC/C=C/C1=CC(=O)C[C@H](c2ccc(OC)cc2)C1	3.2	.	i	0.74	-0.2	-17	.
Cc1c(NC(=O)Nc2ccc3c(c2)OCO3)c(=O)n(-c2ccccc2)n1C	3.6	8.0	.	0.65	0.6	.	0%
CCCOc1ccc(-c2nc3c(c(=O)[nH]c(=O)n3Cc3ccccc3)n2CCO)cc1OCC	0.3	-3.6	i	0.67	-124	0.5	.
CC1=C(C(=O)OCc2ccccc2)C(c2ccccc2-c2ccccc2)NC(=O)N1CCCCCC(=O)O (stereo unspecified)	-3.2	7.8	i	0.77	3.9	-0.8	6%
CCOC(=O)C[C@H]1c2cc(F)ccc2S(=O)(=O)N1c1ccccc1	-3.6	-2.4	i	.	0.1	-2.1	.

Looked up above.
UCH37 DUB inh, Cc1c(NC(=O)Nc2ccc3c(c2)OCO3)c(=O)n(-c2ccccc2)n1C stands at 0.6
Ecoli growth, CN(c1ccc(OCC(=O)OCC(=O)Nc2ccccc2)cc1)S(=O)(=O)c1cccs1 stands at 0.68

The list continues:
SMILES	HNF4A DNA FP	RanGTP-Imp inh	FGF22 binding	Ecoli growth	UCH37 DUB inh	AF4-AF9 inh	Vif TR-FRET
CCC(C)(C(=O)Nc1ccc(OC)cc1)N(C)C(=O)Cn1nnnc1N (stereo unspecified)	0.4	2.8	i	0.73	4.0	0.6	10%
N#CC(c1ccccc1)c1ccc(=O)[nH]n1 (stereo unspecified)	0.5	3.2	i	0.73	2.1	-1.4	-10%
Cc1ccccc1NS(=O)(=O)c1cc(C(=O)Nc2cccc([N+](=O)[O-])c2)ccc1C	7.4	-1.2	i	0.66	2.4	3.4	.
COc1cc(/C=N/N=C2\CC3CCC2(C)C3(C)C)ccc1O (stereo unspecified)	1.8	0.8	.	.	.	.	-7%
CN(C)S(=O)(=O)c1ccc(C(=O)Nc2ccc(S(=O)(=O)NC3=NCCCCC3)cc2)cc1	1.9	-1.9	.	0.69	4.1	.	5%
CCn1c2ccccc2c2nnc(SCCCn3c(=O)[nH]c4ccccc43)nc21	-1.4	.	.	0.7	5.4	.	3%
COC(=O)C1=C(NC(C)=O)CCS1	-3.8	1.0	.	0.66	6.3	.	.
O=C(NCc1cccs1)C1CCC(=O)N1C1CCCCC1 (stereo unspecified)	3.5	-0.2	.	0.68	-0.5	.	0%
O=S(=O)(Nc1nc2ccccc2nc1Cl)c1ccc2c(c1)OCCO2	-2.9	0.3	.	0.65	3.8	-3.4	20%
O=C(COC(=O)C1(c2ccccc2F)CCCC1)NCc1cccs1	-1.2	-2.7	i	0.73	2.3	-26	0%
CCOC(=O)c1c(S(=O)(=O)NCC(=O)Nc2ccc(F)cc2)c(C)n(C)c1C	-0.3	5.7	i	0.65	-0.2	3.1	3%
COc1ccc(OC)c(S(=O)(=O)N(C)CC(=O)O)c1	0.1	2.2	.	0.77	3.0	.	?
Cc1onc(-c2c(F)cccc2Cl)c1C(=O)NC(=S)Nc1c(C)n(C)n(-c2ccccc2)c1=O	0.6	1.5	.	.	.	-1.4	-6%
CC1(C)CC(Cc2nc(=S)[nH][nH]2)C(=O)O1 (stereo unspecified)	4.2	?	i	0.71	1.6	2.5	?
Cc1ccc(NC(=O)NC(=O)CSc2nnnn2C)c(C)c1	-0.8	0.5	.	0.65	0.8	.	0%
O=C(NCc1ccccc1)C1=C[C@@H](c2ccccc2)C[C@@H](OCCCCO)O1	0.4	7.6	i	.	0.8	1.2	.
COC(=O)c1cc(-c2ccc(OC)c(OC)c2)c2c(=O)[nH]c(=O)n(C)c2n1	1.4	2.9	i	0.63	-34	-4.8	-11%
COc1ccc(CNC(=O)C(C)OC(=O)Cn2cnc3c2c(=O)n(C)c(=O)n3C)cc1 (stereo unspecified)	-2.4	.	i	0.71	4.6	-1.8	8%
C=CCc1cccc2cc(C(=O)NNC(=O)c3ccncc3)c(=O)oc12	-21	?	i	0.66	4.1	-1.1	3%
CC(C)(C)CN1CCNC[C@H]1Cc1cccc2ccccc12	8.1	2.5	i	0.75	0.7	1.5	.
O=C(OCC(=O)N1CCNC1=O)c1ccccc1Cl	1.6	.	i	.	.	1.5	.
CC1(C)CC(=O)C(C=NCCCO)=C(O)C1	-2.0	-1.0	.	0.66	1.0	.	3%
Cc1csc2c(N3CCCCC3)ncnc12	2.5	-1.1	i	0.57	1.6	-2.4	.
Cc1cc(=O)oc2cc(OCC(=O)NC3CCN(Cc4ccccc4)CC3)c(Cl)cc12	-1.9	0.0	i	0.7	-11	-1.7	.
CCOC(=O)c1ccc(-c2cc(C)no2)[nH]1	0.5	-1.6	.	0.65	2.1	.	1%
OC[C@@H]1CN(Cc2ccco2)C[C@H](n2cnc3c(Nc4ccccc4)ncnc32)O1	2.4	.	i	.	.	-3.2	.
CC1(C)CC(=O)C(C=NCCN2CCN(C(=S)Nc3cccc(Cl)c3)CC2)=C(O)C1	-4.1	?	.	0.77	1.2	.	1%
CN1C[C@@H]2[C@@H]3C(=O)N(C)C(=O)[C@@H]3[C@](C)(C1=O)N2C(=O)c1ccc(C(F)(F)F)cc1	-1.9	.	i	.	5.8	2.7	.
O=C1NC2(CCCCCC2)Cc2ccccc21	-1.7	-1.2	i	0.6	0.2	5.4	7%
O=C(C(=O)N1CCN(c2ccccc2)CC1)c1ccc2c(c1)OCO2	0.1	.	i	.	.	1.7	.
Fc1ccc(-c2ccc3nccn3c2)cc1Cl	2.0	.	i	.	.	-7.6	.
CC/C(=N/Nc1ccccc1C)c1cnnc(SC)n1	-2.7	-1.6	i	.	.	-2.5	28%

Random excerpt: 2 compounds from above, in no set order.
SMILES	HNF4A DNA FP	RanGTP-Imp inh	FGF22 binding	Ecoli growth	UCH37 DUB inh	AF4-AF9 inh	Vif TR-FRET
O=S(=O)(Nc1nc2ccccc2nc1Cl)c1ccc2c(c1)OCCO2	-2.9	0.3	.	0.65	3.8	-3.4	20%
C=CCN1c2ccc(Br)cc2C(=O)CS1(=O)=O	-3.5	.	i	0.69	-1.0	-0.2	.

Some of the compounds tested (hit frequency here may not be typical).
